HPGD block: HPGD (human) dehydrogenase inhibition; AID 894; P15428; 150,000 tested, 4.3% active; purified HPGD, NADH fluorescence kinetic, PGE2 substrate; Potency, µM, without a hit: top-dose activity change, negative = inhibition, most hits filed as inhibitors; active = well fitted inhibition curve with a large enough effect (not every such curve was filed as active); inconclusive = small, poorly fitted or top-dose-only effect, or another doubt; inactive = no such curve, though single readings can be large or run the other way;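 note: top concentration of the series not given in the record; plate controls included wells without enzyme; inactives centre near -10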
Target sequence (P15428 whole entry, looked up): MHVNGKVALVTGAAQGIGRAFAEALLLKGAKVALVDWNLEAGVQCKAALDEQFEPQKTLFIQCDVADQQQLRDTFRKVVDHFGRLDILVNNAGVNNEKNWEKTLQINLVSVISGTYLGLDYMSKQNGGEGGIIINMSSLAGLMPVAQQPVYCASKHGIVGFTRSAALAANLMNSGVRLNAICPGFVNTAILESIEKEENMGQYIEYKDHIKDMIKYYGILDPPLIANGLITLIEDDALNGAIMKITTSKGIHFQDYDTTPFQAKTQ
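NADH formation kinetics: reaction with 30 uM PGE2 and 1 mM NAD+ (final), 20 nM enzyme, Tris-HCl pH 8 with Tween 20, after 15 min compound preincubation at room temperature. Fluorescence change, last versus first of five reads.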
* = called active by the depositor; ? = inconclusive. % is set by controls: 0 for no effect and ±100 for the full control effect; potency is the fitted concentration of half-maximal effect. The list is partial; rates above refer to the full screens.

Molecule | HPGD block
Cc1ccc(OCCCCN2CCC(C)CC2)c(Br)c1 | -4.5%
CCNc1cc(S(=O)(=O)C(F)(F)F)ccc1N | -10.0%
COc1cc(NC(=O)c2cc([N+](=O)[O-])ccc2Br)ccc1NC(=O)c1ccco1 | -20.2%
CN(CCC#N)C(=O)c1ccc(CNS(=O)(=O)c2ccc(F)cc2)cc1 | -3.6%
CC(C)(C)C(=O)Cn1c(=N)n(Cc2ccccc2Cl)c2ccccc21 | -0.4%
Cc1ccccc1NC(=O)c1nc[nH]c1C(=O)NCc1ccccc1 | -21.2%
Cc1cc(C)cc(OCC(=O)NNC(=O)CN2C(=O)c3ccccc3C2=O)c1 | -2.0%
C/C(Cl)=C/CSc1nnc2n(N)c(=O)c3ccccc3n12 | -17.0%
CS(=O)(=O)N1CCc2cc(S(=O)(=O)N3CCN(Cc4ccc5c(c4)OCO5)CC3)ccc21 | -2.2%
NS(=O)(=O)c1ccc(NC(=O)Nc2ccccc2F)cc1 | -1.0%
Cc1ccc(SCCNC(=O)c2ccc(C)c(S(=O)(=O)Nc3cccc(C)c3)c2)cc1 | -10.6%
CCCc1nc2sc3c(=O)n(N)cnc3c2c2c1CCCC2 | -10.2%
CCc1cc2cc3c(cc2nc1SCC(=O)Nc1nccs1)OCO3 | -10.3%
COc1ccc(NC(=O)c2ccc(C)cc2Cl)c([N+](=O)[O-])c1 | -15.1%
Cc1ccc(CC(=O)N2CCOCC2)cc1 | -16.1%
Cc1ccc(C(=O)Nc2ncc3c(n2)CC(c2ccco2)CC3=O)cc1 (stereo not given) | -5.8%
CC(=O)N1CCN(c2ccc(S(=O)(=O)NCCN(C(C)C)C(C)C)cc2[N+](=O)[O-])CC1 | -4.7%
COc1cccc(C(=O)OCC(=O)Nc2cc(C)c(C)cc2[N+](=O)[O-])c1 | -5.1%
O=S(=O)(NCc1ccc(Cl)cc1)c1ccc(Cl)nc1 | -8.4%
COc1ccccc1N(CC(=O)Nc1ccccc1C(=O)NC(C)C)S(C)(=O)=O | -4.4%
CCOC(=O)c1ccccc1NC(=O)CSc1nccn1C | -10.3%
Cc1c(OCC(F)(F)F)ccnc1CSc1nc2ccccc2[nH]1 | -10.8%
O=C(Cn1cnc2ccccc21)Nc1ccc(C(=O)O)cc1 | -1.5%
Cc1cc(Nc2ccccc2F)n2ncnc2n1 | -2.6%
COc1cccc(NC(=O)C(=O)N2CCOCC2)c1 | -14.0%
O=C(CSc1ncnc2ccccc12)NCc1ccco1 | 15.8µM*
O=C(O)c1ccc2c(=O)n3c(nc2c1)/C(=C/c1cccc(Cl)c1Cl)CCCC3 | ?
COc1ccc2c(=O)c(-c3ccccc3)coc2c1 | ?
Cc1onc(-c2c(Cl)cccc2Cl)c1C(=O)N1CCc2ccccc21 | -7.5%
COc1ccc(-c2oc(/N=C/N3CCCC3)c(C#N)c2-c2ccc(OC)cc2)cc1 | -10.4%
Cc1ccc(S(=O)(=O)N(CC(=O)Nc2ccc(Cl)c([N+](=O)[O-])c2)C2CCCCC2)cc1 | -15.2%
COc1cc2ccccc2cc1C(=O)NC(=S)Nc1nnn(C)n1 | -2.5%
O=C1NC(=Nc2cccc(Cl)c2)SC1Cc1cccc(Cl)c1Cl (stereo not given) | -15.5%
c1ccc(-c2cnc(-c3cccnc3)o2)cc1 | ?
O=C(NCCCN1CCc2ccccc2C1)Nc1ccc(Cl)cc1 | -9.2%
O=C1C2CCC(C(O)C2)N1Cc1ccccc1 (stereo not given) | -17.4%
CCOC(=O)CN(C(=O)CSc1nnc2c(n1)[nH]c1c(C)cc(C)cc12)c1ccccc1 | -8.3%
COc1ccc(NC(=O)c2ccco2)cc1NC(=O)c1cccnc1 | -10.9%
N#Cc1cc2c(=O)n3ccccc3nc2n(CCCn2ccnc2)c1=N | ?
Cn1cccc1C(=O)N1CCC2(CCCN(c3ccc(-c4ccccc4)cc3)C2)CC1 | -15.2%
COc1cccc(CC(=O)n2nc(N)c3cc4ccc(OC)cc4nc32)c1 | -16.4%
CC(C(=O)N(C1CC1)C1(C(=O)Nc2ccccc2)CCCC1)N1C(=O)c2ccccc2C1=O (stereo not given) | -2.2%
CC(C)NC(=O)NC(=O)COc1ccc(Br)cc1Br | ?
Cc1ccc(C)c(OCc2nnc(N)s2)c1 | ?
COc1ccc(Nc2oc(COc3cccc(C)c3)nc2C#N)cc1 | ?
Cc1cccc(NC(=O)CCC(=O)NCCO)c1 | -5.3%
O=C(Nc1ccccc1)c1ccc(N2CCN(c3ccccn3)CC2)c(S(=O)(=O)N2CCOCC2)c1 | ?
COC(=O)CN(c1ccccc1OC)S(=O)(=O)c1ccccc1 | 0.1%
COc1ccc(Nc2cc(C(=O)NCCCN3CCN(C)CC3)c3ccccc3n2)cc1OC | ?
CC(C)CNC(=O)c1cccc(NC(=O)C2CCCO2)c1 (stereo not given) | -9.5%
CCN(CC)c1ccc(N=Cc2ccc([N+](=O)[O-])o2)cc1 | -10.9%
COc1ccc(C(=O)NC2(C(F)(F)F)C(=O)Nc3c2c(=O)[nH]c(=O)n3CCc2ccc(OC)c(OC)c2)cc1 (stereo not given) | -12.1%
CN(C)CCCOC(=O)c1ccccc1 | -4.9%
CCCCOC(=O)CSc1nc2c(cc1C#N)C(=O)CC(C)(C)C2 | -15.5%
COCc1c(C(=O)OCC(=O)N2c3ccccc3CC2C)oc2ccccc12 (stereo not given) | -5.3%
CCc1ccccc1N1CCN(S(=O)(=O)c2ccc(F)c(C)c2)CC1 | -1.1%
CCN1C(=O)S/C(=C/c2ccc(Sc3nc4ccccc4[nH]3)o2)C1=O | 12.6µM*
Cc1ccc(S(=O)(=O)NNC(=O)Nc2ccc(Cl)cc2)cc1 | -8.2%
COc1ccc(C)cc1-n1nnnc1SCC1CCCO1 (stereo not given) | -13.4%
Fc1ccc(/C=N/NC(=S)Nc2ccc(Cl)cc2)cc1F | -11.5%

Structures above containing a CF3 group (three):
Molecule | HPGD block
CCNc1cc(S(=O)(=O)C(F)(F)F)ccc1N | -10.0%
Cc1c(OCC(F)(F)F)ccnc1CSc1nc2ccccc2[nH]1 | -10.8%
COc1ccc(C(=O)NC2(C(F)(F)F)C(=O)Nc3c2c(=O)[nH]c(=O)n3CCc2ccc(OC)c(OC)c2)cc1 (stereo not given) | -12.1%

Next entries
Molecule | HPGD block
Cc1nc(-c2ccc(NC(=O)c3cccs3)cc2)cs1 | ?
CCOC(=O)C1=C(C(=O)OCC)C(C(=O)OCC)N(S(=O)(=O)C(F)(F)F)c2ccccc21 (stereo not given) | -15.0%
CC(=O)n1c2c(c3ccccc31)OC(N)=C(C#N)C2c1ccc(C(C)C)cc1 (stereo not given) | -15.5%
Cc1cc(/C(=N/O)C(C)(C)NO)ccc1Cl | -3.4%
O=C(CN(c1ccc(F)cc1)S(=O)(=O)c1ccc2c(c1)OCCO2)N1CCOCC1 | -8.1%
O=C(COC(=O)Cc1c[nH]c2ccccc12)Nc1ccccc1 | 0.1%
COc1ccc(NCc2nnc(SCc3ccc(Cl)cc3)n2-c2ccccc2)cc1 | -14.5%
O=C(CSc1nc2c(c(=O)[nH]1)CCC2)Nc1cccc(Cl)c1 | 14.1µM*
O=C(NCCCN1CCN(c2cccc(Cl)c2)CC1)c1nc(-c2ccncc2)no1 | -11.9%
CCOc1cccc(N2C(=O)CC(N3CCC(C(N)=O)(N4CCCCC4)CC3)C2=O)c1 (stereo not given) | -12.8%
CC(=O)Nc1ccccc1-c1nc2ccc(C(=O)N3CCN(c4cc(C)ccc4C)CC3)cc2[nH]c1=O | -17.0%
O=C1c2cccc3c(N4CCOCC4)c([N+](=O)[O-])cc(c23)C(=O)N1c1cccc2ccccc12 | -10.3%
CCCOc1ccc(CC(=O)NNC(=S)Nc2ccccc2)cc1Br | ?
O=C(Cn1cnc([N+](=O)[O-])n1)N/N=C/c1ccc2ccccc2c1 | -16.3%
COc1cc(S(=O)(=O)N(Cc2ccccn2)Cc2ccccc2Cl)ccc1-n1cnnn1 | -11.6%
CC(C)(C)NC(=O)c1ccccc1-c1nc(-c2ccccc2Cl)no1 | -5.8%
COC(=O)Cn1c(=O)c2c(nc(Br)n2Cc2ccccc2Cl)n(C)c1=O | -1.2%
CCOC(=O)c1sc2ncn(CC(=O)N(CC)CC)c(=O)c2c1C | -30.0%
C/C(CCc1oc2c(Br)cc(Br)cc2c1-c1ccc(C)o1)=N\O | -23.3%
O=C(O)C1CCCCC1C(=O)NCCCn1ccnc1 (stereo not given) | -3.4%
CCOC(=O)C1CCN(c2c(N3CCCCCC3)c(=O)c2=O)CC1 | -23.6%
COc1cc(/C=N/Nc2nc3ccccc3o2)cc(OC)c1O | -23.3%
CC(C)NC(=O)Cn1nnc(-c2cccc(NC(=O)c3ccccc3F)c2)n1 | -15.7%
CNC(=O)c1sc(N2N=C3/C(=C/c4ccccc4)CCCC3C2c2ccccc2)nc1C (stereo not given) | -26.6%
Cc1ccc(N2CCN(S(=O)(=O)c3ccc(F)c(C)c3)CC2)c(C)c1 | -5.4%
Cc1cc(C=O)c(C)n1-c1sc2c(c1C(=O)O)CCCC2 | -0.4%
COC1=CC(=O)C(C(=O)c2ccccc2)=CC1=O | 4.47µM*
CCCC(=O)Nc1cc(OC)c(OC)cc1C(=O)O | -8.7%
CC1(C)Cc2nc(NCCCO)c(C#N)cc2CO1 | ?
CSc1snc(SCC(N)=O)c1C#N | -10.4%
Cc1ccc(-n2c(C)cc(C(=O)COC(=O)c3c(C)noc3C)c2C)cc1 | -10.6%
FC(F)(F)c1cccc(-c2noc(-c3cc(-c4ccccc4)c(C(F)(F)F)s3)n2)c1 | -5.2%
Cc1ccc2cc(C)c3nnc(SCC(=O)Nc4nc5c(s4)CCCC5)n3c2c1 | -11.2%
CC1CCN(S(=O)(=O)N2CCC(C(=O)NCc3ccc4c(c3)OCO4)CC2)CC1 | -4.4%
Cc1onc(-c2ccccc2)c1C(=O)NNC(=S)NC(=O)/C=C/c1cccs1 | -23.8%
CCCCOc1ccc(C(=O)OC2CC(C)N(C)CC2C)cc1 (stereo not given) | -10.8%
O=C(O)CCc1ccc(-c2cccs2)n1CC1CCCO1 (stereo not given) | -29.9%
CCc1nnc(NC(=O)C=C(C)C)s1 | -3.2%
CCOC(=O)N1CCN(C(=O)CSc2cc(C)nc3c(-c4ccccc4OC)c(C)nn23)CC1 | -3.0%
COC(=O)c1ccc(C2CC(=O)Nc3cc(OC)c(OC)c(OC)c32)cc1 (stereo not given) | ?
Cc1ccc(CN2CCN(/N=C/c3cc(Br)cc(Br)c3O)CC2)c(C)c1 | -8.6%
O=C(NCc1ccc(F)cc1)c1cccc(S(=O)(=O)N2CCCC2)c1 | -12.1%
CCC(=O)NC(=S)Nc1ccc(NC(=O)CC)cc1 | -12.3%
Cc1ccc(OC(=O)c2ccccc2C(=O)OCC(F)(F)C(F)F)cc1 | -22.9%
Cn1c(=O)cc(SCC(=O)NCCC2=CCCCC2)c2ccccc21 | 7.08µM*
O=C(Nc1ccccc1Cl)NC1(C(=O)N2CCCC2)CCCCC1 | -1.5%
COc1ccc(C(=O)N2CCCC2)cc1 | 6.31µM*
Cn1c(N2CCCCC2)nc2c1c(=O)n(Cc1cccc(Br)c1)c(=O)n2C | -14.1%
CCCS(=O)(=O)c1c(S(=O)(=O)CCC)c2c(N)cccn2c1C(=O)c1ccc(Br)cc1 | -11.8%
CC(=O)Nc1cccc(Oc2cc(C#N)c(C#N)cc2N2CCCCCC2)c1 | ?
CSC1=N/C(=C\c2c(F)cccc2Cl)C(=O)S1 | 4.47µM*
COc1ccc(S(=O)(=O)Nc2nc3n(n2)C(c2ccc(Cl)cc2)CC(=O)N3)cc1 (stereo not given) | -12.9%
COc1ccc(C(=O)/C=C/Nc2ccc(S(=O)(=O)Nc3nc(C)cc(C)n3)cc2)cc1OC | ?
O=C(Nc1ccc(F)cc1)c1cccc2c1C(=O)N(Cc1ccccn1)C2 | -4.9%
O=S(=O)(N1CCCCC1)N1CCCN(S(=O)(=O)N2CCCCC2)CC1 | 1.9%
COc1cccc(C(=O)Cn2c(=O)n(CC3CCCO3)c(=O)c3ccccc32)c1 (stereo not given) | -11.9%
Cc1ccc2[nH]c(O)c(N=NC(=O)CCc3ccccc3)c2c1Br | -5.5%
Cc1cc(C(=O)Nc2c(C)nn(Cc3ccccc3Cl)c2C)no1 | 3.9%
COc1ccc(Cl)cc1C(=O)Nc1nnn(C)n1 | -8.4%
CC(=O)N(CCCCl)C(C#N)c1ccccc1 (stereo not given) | -15.1%

(next part)
Molecule | HPGD block
CC(NC(=O)c1ccc(Cl)cc1)C(=O)N1CCCCC1 (stereo not given) | -4.3%
CN1CCN(CCCBr)CC1 | -2.6%
CCOC(=O)c1c(C)n(-c2ccc(C)cc2)c2c(C(C(C)=O)C(=O)O)c(Br)c(O)c(O)c12 (stereo not given) | 17.8µM*
C#CCOCCOCCOCCNc1nc(N2CCN(C(=O)Cn3cc(CCCCN)nn3)CC2)nc(N2CCN(C(=O)[C@H](C(C)C)n3cc(CCO)nn3)CC2)n1 | -2.8%
COc1ccc(C(=O)NC(=S)NC(C)(C)C)cc1Br | -19.9%
Cc1cc(Br)ccc1NC(=O)C1CCCO1 (stereo not given) | ?
O=C(Nc1ccc(O)c(-c2nc3ccccc3s2)c1)c1cc(=O)c2ccccc2o1 | ?
CC(=O)Nc1ccc(NS(C)(=O)=O)cc1 | -4.9%
CC(C)[C@H]1COC(c2cccc([N+](=O)[O-])c2)=N1 | -5.6%
